# PrP UTR inh – inhibition of PrP 5' UTR reporter expression | cell-based PrP 5' UTR mRNA reporter, plate reader | inhibition, % (test concentration not listed) | 340,000 compounds, 0.35% hits;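 active = every replicate at 50% or more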;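 also: 0 = median of the neutral control wells; tested in H4 reporter cells; numbers are from one replicate; inactives centre near -14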
# Mtb hypoxia rep – Mtb hypoxia fluorescent reporter inhibition. AID 1159583. M. tuberculosis hypoxia-regulated fluorescent reporter, fluorescence. 300,000 compounds, 0.1% hits. fluorescence inhibition, % (no concentration beside the values);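 active = 35 to 45% if threefold the growth effect, above 45% if 1.5-fold the growth effect; inactive = the rest, general growth blockers included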;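 also: wells of about 50 µL received 100 nL stock; 0% = vehicle wells and 100% = reference inhibitor wells; whole bacteria with a GFP reporter of the hypoxia response; strong numbers were not always called active; many hits fall short of the cut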
# Bead autofluor – counter-screen for toxin protease inhibitors: compound fluorescence; compound autofluorescence counterscreen, microsphere flow cytometry; active compounds read high; 360,000 compounds, 3.1% hits; AID 624483; fluorescence intensity (test concentration not listed);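 active = at least 3 SD above the mean of all compounds, about 16000 in these data; inconclusive = too few beads counted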;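 also: 100 nL of 1 mM stock went into each well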
# Sa RN4220 lethal – S. aureus RN4220 growth inhibition. 330,000 compounds, 0.33% hits. OD600, 16 h. inhibition, % (test concentration not listed). AID 1259311;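 active = z-score of -3 or lower and OD600 up to 0.18 on both plates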;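 also: plate controls were untreated cells for no effect and reference antibiotic for full effect; stock transfer was 100 nL into about 80 µL; one replicate is shown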
# ugtP null kill – kills S. aureus RN4220 lacking UgtP | S. aureus RN4220 ugtP deletion, OD600 growth, 16 h; some inactives read as strong as hits | growth inhibition, % (concentration not given with the values) | 330,000 compounds, 0.54% hits;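 active = z-score under -3 and OD600 up to 0.15 on both plates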;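 also: plate controls were untreated wells for no effect and antibiotic for full effect; wells of about 80 µL received 100 nL stock; the first replicate is given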
# BJeLR lethal – kills HRASV12-expressing BJeLR cells. inhibition, % (concentration not given with the values). AID 1554. BJeLR (HRASV12) viability, CellTiter-Glo ATP luminescence, 48 h; reference of the scale not given here. 300,000 compounds, 0.17% hits;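 active = replicate mean above 50%; inconclusive = above 50% but judged a plate artefact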;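 also: 50 nL library stock added to about 25 µL; numbers are from one replicate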
# Mtb hypoxia rep growth – also measured in Mtb hypoxia rep; calls as there; growth inhibition, %; measured here: M. tuberculosis growth (absorbance);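 0% = vehicle and 100% = reference antibiotic; read after six days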
# * = called active by the depositor; ? = inconclusive; · = not tested or not shown; & = joins results of further samples. No enrichment for hits; any-hit rate near 4%.
SMILES,PrP UTR inh,Mtb hypoxia rep,Mtb hypoxia rep growth,Bead autofluor,Sa RN4220 lethal,ugtP null kill,BJeLR lethal
CCc1nnc(NC(=O)NCN2C(=O)C3C4C=CC(C4)C3C2=O)s1 (stereo unspecified),-24,15,5,2734,7.2,2,-3
COCCOC(=O)C1=C(C)N(Cc2ccccc2)C(=O)NC1c1ccc(OC)cc1 (stereo unspecified),-23,·,·,2747,-3.3,-14,4
CC1=C(C(=O)N2CCc3ccccc32)C2(CCC(C)CC2)OC1=O (stereo unspecified),-4,18,16,?,8.1,6,·
Cc1ccc2c(Cl)cc(Cl)c(OCc3c(C)noc3C)c2n1,-17,·,·,4656,3.0,-8,-6
O=C(CCCn1c(=O)[nH]c2cc(Cl)ccc2c1=O)NCCN1CCN(c2ccccc2)CC1,-7,·,·,5079,-0.9,-1,-14
COc1cccc(CNC(=O)Cc2ccc(NC3=NC4CS(=O)(=O)CC4S3)cc2)c1 (stereo unspecified),-33,8,13,6326,-13,-5,-2
Cc1ccc(NC(=O)[C@H](NC(=O)[C@@H]2Cc3ccccc3CN2)c2ccccc2)cc1C,-17,-16,-8,3875,-0.8,-4,8
O=C(Nc1ccc(F)cc1F)Nc1ccccc1C(=O)NCCN1CCNC1=O,·,-1,2,·,-5.3,3,-9
Fc1ccc(CCNCc2cccc(Cl)c2)cc1,-9,4,3,9619,2.6,-5,5
COc1ccc(NC(=O)c2nc[nH]c2C(=O)N[C@@H](CC(C)C)C(=O)OC(C)(C)C)cc1,-7,·,·,4128,·,·,-2
COc1ccc(/C=N/NC(=O)c2c(-c3ccccc3)noc2C)cc1,-9,·,·,2595,·,·,-8
CCN(CC)C(=O)Cn1cc(C(=O)C(=O)N2CCN(Cc3ccccc3)CC2)c2ccccc21,-15,-7,-1,4075,-7.0,3,-3
COC(=O)c1cc(CNC(=O)c2ccccc2OCc2c(C)noc2C)ccc1OC,-3,-1,12,5842,1.3,-3,5
CCOC(=O)N1CCN(C(=O)c2ccc(CS(=O)Cc3ccc(C)cc3)o2)CC1 (stereo unspecified),-5,-1,0,4489,-0.6,-2,4
Cc1ccc2c(c1)N(C(=O)CCC(=O)O)CCO2,-7,6,2,9977,3.3,4,2
CCOc1ncccc1C(=O)OCC(=O)NCc1ccc(C(=O)OC)cc1,-12,-1,-2,5942,-2.8,7,·
CCCn1c(NCc2ccccn2)nc2ccccc21,-21,-1,4,4499,-0.3,-4,0
Clc1ccc(-c2csc(NNC3=NCCCCC3)n2)cc1,-26,2,0,6141,-5.6,-44,-20
CC(=O)c1c(C)[nH]c(C(=O)OCC(=O)Nc2ccc3[nH]c(=O)[nH]c3c2)c1C,-25,10,3,5663,3.3,-3,8
O=C(Nc1ccc(Cl)c(Cl)c1)Nc1nnc(CSc2ccccc2)s1,-12,12,10,7472,0.2,-5,10
COc1cccc(CN(CC(=O)NCC2CCCO2)C(=O)CNS(=O)(=O)c2ccccc2)c1 (stereo unspecified),1,-2,1,16841*,1.5,1,4
Cc1cc(C)n2nc(C(=O)OCC(=O)NC3CCCCC3)nc2n1,-15,2,-8,6821,2.0,2,-10
CCCCN1C(=O)C(=O)N(CC(=O)Nc2ccccc2C(C)=O)C1=O,-15,-12,-7,4203,-3.6,-4,·
COc1cc(NC(=O)c2ccc(S(=O)(=O)N(C)c3ccccc3OC)cc2)cc(OC)c1,-29,0,11,3933,2.0,-6,·
COc1ccc(CC(=O)Nc2c(C(N)=O)oc3ccccc23)cc1OC,1,10,8,5722,2.5,3,2
NC(=O)NCC12CC3CC(CC(C3)C1)C2,-14,8,12,3357,-6.3,-3,-13
CC(C)/C(C=O)=C(\NC1CCCCC1)c1ccccc1,·,7,8,·,3.9,15,·
CC(=O)Nc1ccc(NC(=O)CSc2nc3ccccc3nc2N2CCCCC2)cc1,-17,-11,3,5598,6.7,-15,2
CCOC(=O)CN1C(=O)NC(c2ccco2)C(C(=O)OC)=C1C (stereo unspecified),·,12,8,·,3.6,-3,·
CC(=O)Nc1ccc(S(=O)(=O)N2CCN(c3nc(NC4CCCC4)c4ccccc4n3)CC2)cc1,-1,-1,9,2460,-11,-22,1
Cc1ccc(-n2c(SCC(=O)N/N=C/c3ccc(C)s3)nnc2-c2ccccc2)cc1,-19,·,·,1914,·,·,11
Cc1ccc(NC2=NCC(=O)N2Cc2ccc3c(c2)OCO3)cc1,-12,1,5,3976,3.0,15,6
COc1ccccc1Nc1nc2nonc2nc1N1CCC(C)CC1,-2,2,3,2575,1.2,2,5
CC(C)N(CCCNC(=O)Cn1ncc2c([nH]c3ccccc32)c1=O)Cc1ccccc1,-74,12,1,6638,5.4,4,0
COc1ccccc1NS(=O)(=O)c1cc(NC(=O)CC(C)(C)C)ccc1N1CCOCC1,-21,-6,1,4101,-6.7,0,4
Cc1ccc(C(=O)Nc2nc(-c3ccccn3)cs2)o1,25,-1,1,·,3.5,1,7
COc1ccc(C2=NN(C(=O)c3cccs3)C(c3ccc(OC)cc3)C2)cc1 (stereo unspecified),-40,-6,12,2619,-0.3,-22,-3
CC12CN3CC(C)(CN(C1)C3c1ccc([N+](=O)[O-])o1)C2=O (stereo unspecified),-29,-1,0,2265,2.4,1,-6
CCn1c(SCC(=O)Nc2nc3ccc(OC)cc3s2)nnc1-c1ccoc1C,-19,·,·,3429,1.0,11,·
NC(N)=NN=Cc1ccc(Cl)cc1Cl,·,14,4,·,-4.9,-6,·

# Two entries picked at random from those above:
SMILES,PrP UTR inh,Mtb hypoxia rep,Mtb hypoxia rep growth,Bead autofluor,Sa RN4220 lethal,ugtP null kill,BJeLR lethal
CC(C)/C(C=O)=C(\NC1CCCCC1)c1ccccc1,·,7,8,·,3.9,15,·
COc1ccccc1Nc1nc2nonc2nc1N1CCC(C)CC1,-2,2,3,2575,1.2,2,5

# Later entries
SMILES,PrP UTR inh,Mtb hypoxia rep,Mtb hypoxia rep growth,Bead autofluor,Sa RN4220 lethal,ugtP null kill,BJeLR lethal
O=C(NCCCN1CCOCC1)c1ccc(CS(=O)(=O)c2ccc(Br)cc2)o1,-4,·,·,4344,-3.7,-10,-4
CCOc1ccc(CCNC(=O)c2ccc3nc(N4CCOCC4)sc3c2)cc1OCC,-1,-1,16,6039,7.5,2,9
COc1cccc(CC(=O)OCC(=O)NNC(=O)c2ccc([N+](=O)[O-])cc2)c1,-15,-5,0,5611,5.2,4,-6
Cc1c(Cl)ccc2sc(NC(=O)c3ccco3)nc12,-49,4,13,4483,-15,-12,15
Cc1cc(-c2ccccc2)nn1-c1nc2c(c(=O)[nH]c(=O)n2C)n1C,-12,·,·,2812,-3.3,-6,-2
COc1ccc(Oc2ccc(C(F)(F)F)cc2NC(=O)c2ccc(OC)cc2)cc1,-7,-5,-1,6088,-6.9,8,-13
COc1cc(C2C3=C(CCCC3=O)OC3=C2C(=O)CCC3)ccc1OCC(=O)Nc1ccccc1,-11,-10,-5,·,5.2,4,1
COc1cccc(CN2CC(C(=O)NC3CCCCCC3)CCC2=O)c1 (stereo unspecified),-2,6,8,6348,0.0,0,-6
COC(=O)c1[nH]c2ccccc2c1NC(=O)C(C)N1CC(C)OC(C)C1 (stereo unspecified),-62,5,14,4528,3.0,1,-3
CC1C=C(C(=O)NCc2nc3ccccc3[nH]2)OC(OCCCCO)C1 (stereo unspecified),·,7&2,8&9,·,-4.9&-3.5,-4&2,·
S=C(NCC1CCCO1)N1CCc2ccccc2C1 (stereo unspecified),1,3,5,6161,1.0,3,4
COc1ccc(OC)c(/C=N/NC(=O)c2cc[n+](Cc3ccccc3)cc2)c1,-26,·,·,2539,·,·,6
CCc1ccc(/C=N/NC(=S)NCCc2ccccc2)cc1,6,·,·,3330,·,·,0
CCN(CC)C(=O)C1=C(C)Nc2nc3ccccc3n2C1c1cccc(OC)c1 (stereo unspecified),-18,4,0,8701,-2.8,-13,1
O=C(NCC(c1ccco1)N1CCc2ccccc2C1)c1ccc(Cl)c([N+](=O)[O-])c1 (stereo unspecified),-22,7,4,7914,2.4,8,-1
CSc1ccc(Cl)c(C(=O)Nc2ccc(C)cn2)c1,-31,11,2,3818,6.7,3,25
CCN(CC)C(=O)CSc1nc2sc3c(c2c(=O)n1CCCOC)CCC3,-3,3,-3,4048,2.5,2,-4
c1ccc(-n2c(SCC3CCCCO3)nnc2-c2cccs2)cc1 (stereo unspecified),-3,15,12,6919,3.0,3,2
O=C(Cn1c(C(F)(F)F)nc2ccccc21)c1ccc(F)cc1,-21,·,·,5358,-5.4,-1,8
CC1=CC(=O)O[C@@H]1[C@@]1(C)C[C@H]2OC(=O)C[C@H]3[C@@H](C)C(=O)C(O)=C1[C@@]23CO,-7,·,·,5516,5.9,-10,3
COC(=O)c1sc(S(=O)(=O)N2CCCCC2)c(C(=O)OC)c1C,-25,-18,7,8604,-1.6,-13,16
O=C1CC2c3c(cccc3CN1Cc1ccccc1Br)CC(O)C2O (stereo unspecified),·,6,5,·,8.7,-4,·
S=C(NCc1ccccc1)NCC1COc2ccccc2O1 (stereo unspecified),-8,7,0,11136,-12,2,-3
O=C(O)C1CC=CCC1C(=O)NNc1c(Cl)cc(Cl)cc1Cl (stereo unspecified),9,-6,6,4175,3.3,4,-4
COc1ccc(C(=O)OCC(=O)NC(C)CCc2ccccc2)c(OC)c1 (stereo unspecified),-6,2,7,3446,0.8,4,3
Cc1ccc(S(=O)(=O)NC2(C(F)(F)F)NC(=O)N(Cc3ccccc3)C2=O)cc1 (stereo unspecified),-7,6,-3,4018,3.2,2,-4
COC(c1ccccc1)c1nnc(CCC(=O)NC2C3CC4CC(C3)CC2C4)o1 (stereo unspecified),-21,3,5,2522,0.9,2,-1
CCOC(=O)c1cnc2c(C)cccc2c1Nc1ccc(N2CCOCC2)cc1,·,3,4,·,11,-2,-3
CCCCCCCOC(=O)C1=C(C)Nc2ncnn2C1c1cccs1 (stereo unspecified),-23,16,9,10007,1.2,-30,6
C=CCNC(=O)C1CC2Cn3c(nc4cc(Cl)c(Cl)cc43)C2N1C (stereo unspecified),-13,-1,-5,3390,5.8,1,8
O=C1C2C3C=CC(CC3)C2C(=O)N1c1cccc(Br)c1 (stereo unspecified),-6,5,-2,3408,-3.2,7,-5
Clc1ccc(/C=N/Nc2nnc(-c3ncc[nH]3)c3ccccc23)cc1,-56,·,·,5651,·,·,-5
COCc1cc(C)nc(N2CCOCC2)c1C#N,7,9,6,5465,3.1,13,-4
CCN(CC)S(=O)(=O)c1cccc(C(=O)OCC(=O)NCc2ccccc2OC)c1,-8,10,4,6015,2.4,5,-3
CCCC(C)NC(=O)c1cccc(Oc2ccccc2)c1 (stereo unspecified),-19,-2,7,3308,-1.9,2,0
COc1ccc(CN2CCNC(=O)C2CC(=O)NCCc2nc(C)c(C)s2)c(OC)c1 (stereo unspecified),-16,-7,8,4684,1.8,2,1
COc1ccccc1-c1nnc(SCC(=O)NCc2cccs2)n1N,-24,8,9,4435,6.0,4,14
COc1ccc(CCNC(=O)C2CCN(C(=O)c3ccc(Cl)cc3)CC2)cc1,-13,16,12,3165,3.9,6,-11
O=C1CN=CN=CN1c1ccc(Cl)cc1Cl,-15,8,11,2421,2.6,4,-2
CCCN1CC(CSC)CC2c3cccc4[nH]cc(c34)CC21 (stereo unspecified),·,-18,-2,·,3.9,0,·
Cc1ccnc(SCCn2c(N3CC(C)OC(C)C3)nc3c2c(=O)n(C)c(=O)n3C)n1 (stereo unspecified),-25,1,4,3344,0.5,-4,·
CCOC(=O)C1=NNC2(CC(=O)N(c3cccc(C)c3)C2=O)C1 (stereo unspecified),-11,0,8,5586,4.0,12,0

# An excerpt of these results, with each value named.
smiles: O=C1C2C3C=CC(CC3)C2C(=O)N1c1cccc(Br)c1 (stereo unspecified)
- PrP UTR inh: -6
- Mtb hypoxia rep: 5
- Mtb hypoxia rep growth: -2
- Bead autofluor: 3408
- Sa RN4220 lethal: -3.2
- ugtP null kill: 7
- BJeLR lethal: -5

smiles: Clc1ccc(/C=N/Nc2nnc(-c3ncc[nH]3)c3ccccc23)cc1
- PrP UTR inh: -56
- Mtb hypoxia rep: ·
- Mtb hypoxia rep growth: ·
- Bead autofluor: 5651
- Sa RN4220 lethal: ·
- ugtP null kill: ·
- BJeLR lethal: -5

smiles: COCc1cc(C)nc(N2CCOCC2)c1C#N
- PrP UTR inh: 7
- Mtb hypoxia rep: 9
- Mtb hypoxia rep growth: 6
- Bead autofluor: 5465
- Sa RN4220 lethal: 3.1
- ugtP null kill: 13
- BJeLR lethal: -4

# Compound activity deposited in PubChem BioAssay by several laboratories.
